Source: PubChem
Sfp inh = blocks B. subtilis Sfp PPTase activity | Q9F4F7 | Biochemical Sfp PPTase activity, qHTS | Potency, µM, inactives show max response, negative = inhibition, usual class: inhibitors | 310,000 compounds, 3.5% hits; active means well fitted inhibition curve with a large enough effect; inconclusive means small, poorly fitted or top-dose-only effect, or another doubt; inactive means no such curve, though single readings can be large or run the other way;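 further: the enzyme is Sfp with the accession as filed and its product quenches rhodamine fluorescence; potency means the concentration at half of the fitted maximal effect; 0% = enzyme reaction without inhibitor and -100% = no enzyme wells; top concentration of the series not given in the record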
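Fluorescence-quenching assay: 15 nM Sfp-PPTase preincubated 15 min at room temperature with compound, then 5 uM rhodamine-CoA and 12.5 uM BHQ-2-labelled YbbR peptide added. Fluorescence (ex 525/em 598 nm) read at start and after 30 min; difference gives rate.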
CtBP-E1A inh = blocks the CtBP interaction with E1A; AlphaScreen GST-E1A/His-CtBP binding, 1536-well; hits give low values; control for the full effect not named in the record; activity change, % (concentration not given with the values); 340,000 compounds, 0.49% hits; in the data active means activity change below about -65%; inconclusive means about -30% to -65%; inactive means above about -30%; further: on the % scale 0 is the no-effect control and ±100 the full control effect
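AlphaScreen with 125 nM GST-E1A and 125 nM His-CtBP (5X stocks) in Tris pH 8.0, 300 mM NaCl, BSA, Tween 20, TCEP. Compounds preincubated 2 h at 37 deg C, then glutathione donor/nickel acceptor beads added for 1 h at 37 deg C in dark.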
D2 PAM = potentiates the human D2 dopamine receptor allosterically. P14416. DiscoveRx D2 beta-arrestin cells, luminescence, 90 min; 100% = 57 uM dopamine signal. AID 624464. potentiation, % (no concentration beside the values). 360,000 compounds, 0.23% hits; active = potentiation of 50% or more; inconclusive = 30% to 50%; inactive = 30% or less;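 further: compound concentration not given in the record; tested on top of an EC20 dose of dopamine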
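PathHunter beta-arrestin assay in DiscoveRx D2 cells. Compounds were added with an EC20 of dopamine (50 nM final) for 90 min at 37 deg C. Luminescence was read 1 h after detection reagent, with 57 uM dopamine as the EC100 control.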
Six1-Eya2 blk = Six1/Eya2 interaction inhibition | Q15475+O00167 | AlphaScreen GST-Six1/His-Eya2 binding, biochemical; hits give low values; control for the full effect not named in the record | activity change, % (concentration not given with the values) | 360,000 compounds, 0.56% hits | AID 651725; in the data active = activity change below about -65%; inconclusive = about -30% to -65%; inactive = above about -30%; further: on the % scale 0 is the no-effect control and ±100 the full control effect
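Homogeneous AlphaScreen proximity assay pairing GST-Six1 with His-tagged Eya2 (added as 5X mix: 250 nM and 500 nM) in 50 mM Tris pH 8.0, 300 mM NaCl, 1 mM TCEP. Glutathione donor and nickel acceptor beads; 1 h, 37 °C, dark.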
PINK1 modulator = PINK1 expression modulation; AID 624263; Potency, µM (doses to about 76.6 µM), for inactives: top-dose activation (PINK1 increase), usual class: activators; 410,000 compounds, 0.2% hits; PINK1 immunofluorescence, high-content cytometry, 24 h; active = well fitted activation curve with a large enough effect; inconclusive = small, poorly fitted or top-dose-only effect; inactive = flat fitted curve, though single readings scatter; cell line not stated here;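 further: potency means the concentration at half of the fitted maximal effect; % of control where 0% means no effect; nearly all actives have a fitted effect of over 65% in size; a mitochondrial uncoupler was the plate control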
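PINK1 protein level read as immunofluorescence by microplate cytometer in a fixed, stained stable cell line after 24 h exposure to five compound concentrations, with CCCP as control.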
D2 ag = agonists of human D2 dopamine receptor (beta-arrestin); P14416; DiscoveRx PathHunter D2 beta-arrestin, luminescence, 90 min; 100% = 57 uM dopamine signal; activation, % (test concentration not listed); 360,000 compounds, 0.084% hits; in the data active = activation above about 40%; inconclusive = about 15% to 40%; inactive = below about 15%; further: compound concentration not given in the record; the text of the record calls up to 30% inactive
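Agonist mode: compounds alone added to overnight-plated D2 PathHunter cells for 90 min at 37 C, with 57 uM final dopamine (EC100) defining full response. Beta-arrestin recruitment detected by chemiluminescent reagent, read after 1 h at ambient temperature.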
TRPV1 PAM = potentiators of human vanilloid receptor 1 (TRPV1); potentiation, % at 8.33 µM; 320,000 compounds, 0.02% hits; AID 540277; TRPV1-expressing cells, Fluo-8 calcium influx, capsaicin EC20 potentiation; host cell line not named in the record; control for the full effect not named in the record; active means potentiation above 80%; inconclusive means 30% to 80%; inactive means below 30%; further: 0% is about no effect
Target sequence (Q8NER1 whole entry, looked up): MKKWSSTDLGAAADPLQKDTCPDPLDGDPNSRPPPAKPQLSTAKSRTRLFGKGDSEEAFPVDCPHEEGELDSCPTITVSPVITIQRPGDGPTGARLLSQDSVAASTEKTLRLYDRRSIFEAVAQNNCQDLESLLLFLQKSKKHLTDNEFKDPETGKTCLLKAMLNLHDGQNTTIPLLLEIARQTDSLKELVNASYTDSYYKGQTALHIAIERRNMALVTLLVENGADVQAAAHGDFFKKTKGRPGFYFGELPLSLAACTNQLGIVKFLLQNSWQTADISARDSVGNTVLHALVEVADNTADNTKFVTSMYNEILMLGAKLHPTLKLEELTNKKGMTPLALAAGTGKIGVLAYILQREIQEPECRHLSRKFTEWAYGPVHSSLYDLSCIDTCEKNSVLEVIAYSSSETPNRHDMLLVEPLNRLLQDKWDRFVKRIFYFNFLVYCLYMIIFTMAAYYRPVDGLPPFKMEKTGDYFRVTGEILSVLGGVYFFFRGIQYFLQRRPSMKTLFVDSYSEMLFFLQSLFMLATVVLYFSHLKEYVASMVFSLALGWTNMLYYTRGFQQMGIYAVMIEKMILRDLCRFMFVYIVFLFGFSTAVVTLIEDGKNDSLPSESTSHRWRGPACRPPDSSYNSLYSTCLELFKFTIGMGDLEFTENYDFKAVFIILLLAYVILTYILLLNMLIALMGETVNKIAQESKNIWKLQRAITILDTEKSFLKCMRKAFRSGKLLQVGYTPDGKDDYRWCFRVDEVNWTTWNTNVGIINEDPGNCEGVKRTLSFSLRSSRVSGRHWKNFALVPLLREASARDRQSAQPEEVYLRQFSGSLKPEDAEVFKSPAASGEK
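TRPV1-expressing cells were cultured overnight at 35.5C and loaded with Fluo-8 calcium dye for 40 to 90 min at room temperature. After a 10 s baseline, compound was added and calcium influx was read kinetically for 3 min (ex 480/em 520 nm).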
The depositor's hits bear a star; ? = inconclusive; / = no result given; & = joins results of further samples; [ ] = remark or other dose. Random draw from the library; overall some 3.7% were active at least once.

Each structure is followed by: Sfp inh, CtBP-E1A inh, D2 PAM, Six1-Eya2 blk, PINK1 modulator, D2 ag, TRPV1 PAM
CCOc1ccc(NC(=O)C(CC(=O)O)Cc2ccc(C)cc2)cc1 (stereo unspecified)
 : 13%, 8, -4, -17, 2.1%, 1.6, -1
O=S(=O)(Nc1ccc(Cl)cc1)c1cccc2nsnc12
 : 0%, -4, 7, 3, 9.0%, -0.3, 25
Cc1ccc(C2C(C(=O)c3sc(C)nc3C)=C(O)C(=O)N2CCN2CCOCC2)o1 (stereo unspecified)
 : -9%, 5, -3, 10, 3.8%, -1.0, 2
COc1cc(CNC(=O)c2cc(-c3cc(C)cc(F)c3)n[nH]2)cc(OC)c1
 : /, 0, -12, 0, -0.1%, 2.4, /
COC(=O)CC1(c2ccc(OC)cc2)C(=O)c2ccccc2C1=O
 : 8%, 4, 0, -2, 3.7%, -2.5, 0
O=C(CN1C(=O)CSCC1=O)NCc1ccc(F)cc1
 : 11%, /, -1, 7, -1.9%, -0.4, 23
CN1CCN(C(=O)/C(=C\c2cccs2)NC(=O)c2ccccc2)CC1
 : -1%, 11, -11, -5, -1.1%, -2.2, 2
CCOC(=O)Nc1ccc(=O)n(Cc2c(Cl)cccc2Cl)c1
 : -17%, 2, -9, -3, /, -2.6, /
COc1ccc(-c2noc(CCC(=O)N3CCN(c4ccccc4OC)CC3)n2)cc1
 : /, 1, 10, 0, 0.8%, 2.1, /
N/C(Cc1ccc([N+](=O)[O-])cc1)=N\OC(=O)c1ccc2ccccc2c1
 : -8%, -11, 143*, -11, -2.7%, ?, -8
CCn1ccnc1CN(C)Cc1nc(-c2cccc(Cl)c2)no1
 : -2%, 0, -22, 6, -1.5%, -2.2, -8
N#C/C(=C\c1ccccc1Cl)C(=O)Nc1ccccn1
 : 10%, 1, -1, 9, 1.2%, -0.3, -5
COc1ccc(N2CCN(C(=O)C3CCCN(c4ncnc5c4nc4n5CCCCC4)C3)CC2)cc1 (stereo unspecified)
 : 2%, -29, 18, -11, 3.1%, 1.2, -17
O=C1NC[C@@H](CCCCN2C[C@H](Cc3ccccc3)N(CCC3CCCCC3)C(=O)C2=O)N(Cc2ccccc2)C1=O
 : /, -3, /, -14, -0.7%, /, /
COCCOC(=O)c1c(C)n(C)c2ccc(OC(=O)c3ccccc3OC)cc12
 : 8%, /, -9, -13, 1.3%, -7.1, -1
COc1cccc(NC(=O)N(C2CCCCC2)C(C)c2cccs2)c1 (stereo unspecified)
 : 6%, 4, -15, 0, 0.4%[38.3 µM], 0.5, -3
CCCc1nc(Nc2nc3ccccc3o2)nc(C)c1C(=O)OCC
 : 18%, 3, 2, -1, 9.7%[38.3 µM], -4.7, -5
COc1cc(NS(=O)(=O)c2ccc(NC(=S)NC(=O)c3ccco3)cc2)ncn1
 : -11%, 3, -4, -14, 0.6%, -12, -16
CCOC(=O)CSCc1c(C#N)c2ccccc2n1C
 : 22%, 6, 6, 8, -0.9%, -3.2, -3
O=C(COc1ccccc1)N1CCCCCCC1
 : 16%, 0, -9, -19, -1.1%, -2.8, -2
CC(=O)c1c(C)[nH]c(C(=O)OC(C)C(=O)NC2CCCCC2)c1C (stereo unspecified)
 : /, 4, -8, 13, 1.7%, -1.7, /
COc1ccccc1NC(=O)CC1Nc2ccccc2NC1=O (stereo unspecified)
 : -17%, -20, -18, -26, 2.8%, -4.1, 12
COc1cccc(C(C(=O)NCC2CCCO2)N(C(=O)Cn2nnc3ccccc32)c2ccc(NC(C)=O)cc2)c1 (stereo unspecified)
 : 13%, 0, -4, 33, 0.2%, -0.1, -15
COc1ccc(CCNC(=O)COC(=O)Cc2cccc3ccccc23)cc1
 : 11%, -4, 15, 7, -0.7%&3.7%, -0.6, -1
CC1Oc2ccccc2N(CC(=O)Nc2ccc3c(c2)OCO3)C1=O (stereo unspecified)
 : 4%, 3, 4, -1, 0.0%[38.3 µM], -1.2, 13
O=S1(=O)CCN(OCc2ccc(Cl)cc2)CC1
 : 16%, 13, -3, -1, 6.1%, 0.1, 7
Cc1cc(-c2ccc(C)c(S(=O)(=O)N3CCN(c4ccc([N+](=O)[O-])cc4)CC3)c2)on1
 : 15%, 1, -3, -1, -1.4%, 2.5, 2
Cc1cccc(N2CN=c3s/c(=C\c4ccncc4)c(=O)n3C2)c1
 : 4%, -3, 5, 6, 0.5%, -1.6, 0
COc1ccc(S(=O)(=O)N2CCCC2CNC(=O)c2cccc(OC)c2)cc1 (stereo unspecified)
 : /, -3, -7, 0, -2.0%, -4.0, -11
CC(NC(=O)C(=O)N/N=C\c1cccc([N+](=O)[O-])c1)c1ccccc1 (stereo unspecified)
 : -24%, 19, -6, -1, 7.7%, -1.1, 4

Rewritten tab-delimited: part of the list above.
structure	Sfp inh	CtBP-E1A inh	D2 PAM	Six1-Eya2 blk	PINK1 modulator	D2 ag	TRPV1 PAM
COc1cccc(C(C(=O)NCC2CCCO2)N(C(=O)Cn2nnc3ccccc32)c2ccc(NC(C)=O)cc2)c1 (stereo unspecified)	13%	0	-4	33	0.2%	-0.1	-15
COc1ccc(CCNC(=O)COC(=O)Cc2cccc3ccccc23)cc1	11%	-4	15	7	-0.7%&3.7%	-0.6	-1
CC1Oc2ccccc2N(CC(=O)Nc2ccc3c(c2)OCO3)C1=O (stereo unspecified)	4%	3	4	-1	0.0%[38.3 µM]	-1.2	13
O=S1(=O)CCN(OCc2ccc(Cl)cc2)CC1	16%	13	-3	-1	6.1%	0.1	7
Cc1cc(-c2ccc(C)c(S(=O)(=O)N3CCN(c4ccc([N+](=O)[O-])cc4)CC3)c2)on1	15%	1	-3	-1	-1.4%	2.5	2

(further entries)
Each structure is followed by: Sfp inh, CtBP-E1A inh, D2 PAM, Six1-Eya2 blk, PINK1 modulator, D2 ag, TRPV1 PAM
O=S(=O)(NCc1ccc(F)cc1)c1ccc(-n2cnnn2)cc1
 : 2%, /, -4, 4, 7.9%, 5.6, 3
CCN(CC)C(=O)n1nc(C)c(CN2C(=O)c3ccccc3C2=O)c1C
 : /, 1, 1, 0, -1.9%, -4.9, /
COc1ccc(NC2CCCN(C(=O)c3csc(C(C)C)n3)C2)cc1OC (stereo unspecified)
 : -1%, -2, 10, -2, 3.9%, 2.5, -4
CC(=O)c1ccc(-c2cccc(-c3nc4ccccn4c3NC3CCCCC3)c2)cc1
 : /, /, -10, -22, 2.8%, 3.3, -4
OCC1OC(n2cnc3c(NC4CCCC4)ncnc32)C(O)C1O (stereo unspecified)
 : /, 3, -6, 0, 0.2%, 5.8, /
O=C1c2ccccc2C(=O)N1Cc1cc(-c2ccccc2)no1
 : -25%, 8, -3, 9, -4.7%[38.3 µM], 1.5, -9
Oc1cc2c(cc1CN1CCN(c3cccc(C(F)(F)F)c3)CC1)CCC2
 : 0%, -1, -38, -7, 1.0%, -0.3, 15
CC(=O)c1ccc(-c2cccc([C@H]3[C@@H]4C=CC[C@@H](C)[C@@H]4C(=O)N3Cc3ccccc3)c2)cc1
 : -19%, -11, /, -12, 3.1%, -1.3, /
CC(C)Cc1ccc(C(C)C(=O)Nc2ccccc2O)cc1 (stereo unspecified)
 : 17%, -10, 1, 4, ?, -4.2, -9
COc1ccc(-c2csc(N(CCCN(C)C)C(=O)c3ccc(OC)c(OC)c3)n2)cc1
 : /, 21, -42, 1, 1.4%, 2.1, /
Clc1ccc(OCCn2ccnc2)c(Br)c1
 : -15%, 2, -3, -1, -1.1%, -2.7, 7
Cc1ccc(S(=O)(=O)N2CCC(C(=O)N3CCC(C(=O)NCc4cccnc4)CC3)CC2)cc1
 : 0%, 0, -19, 3, -0.3%[38.3 µM], -1.6, 12
COCCC(=O)N1CCC(n2nccc2NC(=O)c2ccccc2C)CC1
 : 25%, 3, -8, 1, -1.7%, -2.4, -19
COc1cc(OC)c(NC(=O)c2ccc3c(SCC(=O)O)c4c(nc3c2)CCCC4)cc1Cl
 : -25%, -4, -1, -25, -0.2%, -19, -2
Cc1ccc(S(=O)(=O)N2CCN(C(=O)C3CCCO3)CC2)cc1 (stereo unspecified)
 : 7%, -5, -9, 2, -0.6%, 1.1, 5
CCCCN(S(=O)(=O)c1ccccc1)S(=O)(=O)c1ccccc1
 : 0%, 23, 5, 16, 1.7%, -1.3, 1
COc1ccc(C(=O)NN=C(Cc2ccccc2)Cc2ccccc2)cc1OC
 : 3%, 8, -14, 1, 1.4%, -1.8, -13
Cc1ccc(C(=O)CCS(=O)(=O)c2ccc(Cl)cc2)cc1
 : 7%, -2, -10, 0, 11%, -3.8, -6
COc1ccc(N2CC(C(=O)OCC(=O)Nc3cccc(C)c3)CC2=O)cc1 (stereo unspecified)
 : 6%, -2, -14, 0, 1.2%, -6.4, 15
CCOC(=O)Cn1nc(C)c(NC(=O)COc2ccc(C)c(C)c2)c1C
 : 14%, -1, -3, 4, 0.5%&7.4%, -2.3, 19
COc1cccc(NC(=O)C2CCCN2C(=O)OCc2ccccc2)c1 (stereo unspecified)
 : 7%, 4, 5, 0, -0.1%, -5.5, -3
Cc1ccc(C(=O)Nc2ccccc2[N+](=O)[O-])cc1S(=O)(=O)N1CCOCC1
 : 12%, ?, 0, -26, ?, 4.9, -5
CN(C)c1ccc(NC(=S)NC(=O)/C=C/c2ccc(Cl)cc2)cc1
 : -2%, -21, -15, ?, 23%, -0.4, -12
O=C(N/C(=C/c1cccc([N+](=O)[O-])c1)C(=O)N1CCCCCC1)c1ccco1
 : 18%, -2, -8, -4, -1.3%, 0.7, -11
Cc1ccc(NC(=O)c2oc(=O)c3ccccc3c2-c2ccccc2)c(C)c1
 : 5%, 7, -3, -5, 7.8%, -5.9, 3
COc1ccc(-n2c(=S)[nH]c3cc(C(=O)NCc4cccnc4)ccc3c2=O)c(OC)c1
 : 20%, -10, -12, -2, 1.7%, -1.8, 1
CCN(CC)S(=O)(=O)c1ccc2nnn(O)c2c1
 : -17%, -2, -13, 11, -0.6%, -5.0, 11
Cc1ccc(S(=O)(=O)Nc2ccccc2F)cc1C(=O)OC(C)C(=O)N1CCOCC1 (stereo unspecified)
 : /, -24, -3, 13, 0.5%, -2.4, 3
CC1(C)CC(=O)c2c(O)c(-c3ccccc3)c(=O)n(-c3ccccc3)c2C1
 : 6%, -10, -6, -3, 0.0%, -1.8, 8
Cc1nn(C(C)C(=O)NCc2cccs2)c(C)c1[N+](=O)[O-] (stereo unspecified)
 : 19%, /, -8, 11, -0.1%, -1.9, -2
O=C(COC(=O)C1(c2ccc(Cl)cc2)CCCC1)NC1CCS(=O)(=O)C1 (stereo unspecified)
 : 7%, 7, 2, 2, -0.3%, 1.4, -7
CC(C)N1CCN(S(=O)(=O)c2ccccc2)CC1
 : 8%, 5, 2, 2, 2.4%, -0.8, -1
